Compound activity as filed in PubChem BioAssay.
HTT promoter inh = HTT promoter inhibition; HEK293 HTT promoter firefly luciferase reporter (activity 0% = vehicle and -100% = no light), 24 h; Potency, µM (highest dose often 57.5 µM), inactives show at the highest dose activity change, negative = inhibition, actives largely listed as inhibitors; hit rate 0.93% among 48,000; AID 1508623; active means well fitted inhibition curve with a large enough effect; inconclusive means small, poorly fitted or top-dose-only effect; inactive means no such curve, though single readings can be large or run the other way; further: nearly all actives have a fitted effect of over 50% in size
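HEK293 cells carrying firefly luciferase reporters were seeded at 2,500 per well in Opti-MEM and cultured for 24 h. They were then treated with compounds at up to 57.5 uM final for 24 h at 37 degrees C before Dual-Glo luminescence readout.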
PMP22 txn prim = modulators of PMP22 gene transcription in S16 Schwann cells. S16 Pmp22-F2sN Schwann cells (luciferase reporters placed in the Pmp22 gene), FLuc/NLuc coincidence luminescence, 24 h. Potency, µM (highest dose often 57.5 µM), inactives show at the highest dose activity change, negative = inhibition, actives largely listed as inhibitors. AID 1508649. hit rate 2% among 43,000; active = clear falling dose curves in both reporters; inconclusive = both reporters move, but less clearly or upward; inactive = either reporter flat; the % is the NLuc reporter signal; further: on the % scale 0 is the no-effect control and ±100 the full control effect; some results filed as inactive show a strong effect at the top dose
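qHTS, 1536-well. Cells seeded, compounds added by pin tool, 24 h 37C. Nano-Glo reagent 1 (lysis/FLuc), 10 min RT, read; Stop&Glo, 10 min RT, read NLuc.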
* marks the source's active call; other numbers are inactive results; [ ] = another dose, or the depositor's remark. Potency means the concentration at half of the fitted maximal effect. Compounds were not picked by outcome. About 2.6% of those tested had a hit in this group.

Screening CCOC(=O)c1ccc(OCC2c3cc(OC)c(OC)cc3CCN2C(=O)Cc2ccc(F)cc2)cc1 (centres undefined) returned HTT promoter inh inconclusive and PMP22 txn prim inconclusive.
Screening Cc1cccc(Cn2c(SCc3ccc(C(=O)NCc4cccs4)cc3)nc3cccnc32)c1 returned HTT promoter inh inconclusive and PMP22 txn prim -24.9%.
`COc1ccc(OC)c(CNC(=O)c2cccc(NC(=O)N3CCSc4ncccc43)c2)c1` gave HTT promoter inh -27.5% and PMP22 txn prim -15.8%.
Cc1ccc2c(c1)c1c(c(=O)n(-c3ccccc3)c(=O)n1CC(=O)N1CCCC1)n2C was read as HTT promoter inh -15.2% and PMP22 txn prim -1.4%.
For Cc1ccc(C)c(N2CCN(c3nc4ccccc4c(=O)n3-c3ccccc3)CC2)c1 the results were HTT promoter inh inconclusive and PMP22 txn prim inconclusive.
Screening COc1ccc(CNC(=O)CCCN2C(=O)c3cccnc3Oc3ccc(Cl)cc32)cc1 returned HTT promoter inh -10.9% and PMP22 txn prim -9.1%.
Screening COC(=O)c1ccccc1NC(=O)c1cc(-c2ccccc2O)no1 returned HTT promoter inh -27.2% and PMP22 txn prim -2.1%.
For CCC(C)NC(=O)CSc1nc(-c2ccc(F)cc2)cc(C(F)(F)F)n1 (centres undefined) the results were HTT promoter inh -5.7% and PMP22 txn prim 4.9%.
COc1ccc2c(Sc3ccccc3)c(C(=O)NCc3ccc(OC(C)C)cc3)[nH]c2c1 was read as HTT promoter inh -9.6% and PMP22 txn prim 17.3%.
CN(C)c1ccc(CNC(=O)c2cc3cc(S(=O)(=O)N4CCCCC4)ccc3n2C)cc1 was read as HTT promoter inh inconclusive and PMP22 txn prim -9.8%.
`COc1ccc(N2CCN(Cc3nc4c(c(=O)[nH]c(=O)n4C)n3Cc3ccc(Cl)cc3)CC2)cc1` gave HTT promoter inh -18.1% and PMP22 txn prim -16.2%.
Screening Cc1cc2c(cc3c(SCc4ccccc4Cl)nnc(C)n32)o1 returned HTT promoter inh 76.9%[activator] and PMP22 txn prim -10.2%.
Screening Cc1ccc(Cn2c(=O)c3ccccc3n3c(-c4cccc(O)c4)nnc23)cc1 returned HTT promoter inh inconclusive and PMP22 txn prim -25.0%.
CCc1cccc(NC(=O)c2oc3ccc4c(c3c2C)C(=O)CC(C)(C)O4)c1 was read as HTT promoter inh inconclusive and PMP22 txn prim inconclusive.
For Cc1ccn2c(c1)nc(=O)c1cc(S(=O)(=O)N3CCCCC3)ccc12 the results were HTT promoter inh -14.5% and PMP22 txn prim -1.6%.
`O=S(=O)(NCC(c1ccco1)S(=O)(=O)c1cccs1)c1ccc(F)c(C(F)(F)F)c1` (centres undefined) gave HTT promoter inh inconclusive and PMP22 txn prim 7.27µM*.
`CCOc1ccc2nc(SCC(=O)Nc3ccc(F)cc3)nc(-c3ccccc3)c2c1` gave HTT promoter inh -1.2% and PMP22 txn prim inconclusive.
For CCOc1ccccc1CNC(=O)CC(C)n1ccc(C)n1 (centres undefined) the results were HTT promoter inh -7.7% and PMP22 txn prim 6.0%.
`CCC(C)n1c(SCc2ccc(C(C)(C)C)cc2)nc2ccsc2c1=O` (centres undefined) gave HTT promoter inh -4.7% and PMP22 txn prim 1.3%.
`CCCCn1c(Oc2cccc(C(=O)OC)c2)nc2c1c(=O)n(C)c(=O)n2C` gave HTT promoter inh -0.4% and PMP22 txn prim 13.6%.

Overlap with the part before: five entries; new compounds follow.
`O=S(=O)(NCC(c1ccco1)S(=O)(=O)c1cccs1)c1ccc(F)c(C(F)(F)F)c1` (centres undefined) gave HTT promoter inh inconclusive and PMP22 txn prim 7.27µM*.
`CCOc1ccc2nc(SCC(=O)Nc3ccc(F)cc3)nc(-c3ccccc3)c2c1` gave HTT promoter inh -1.2% and PMP22 txn prim inconclusive.
For CCOc1ccccc1CNC(=O)CC(C)n1ccc(C)n1 (centres undefined) the results were HTT promoter inh -7.7% and PMP22 txn prim 6.0%.
`CCC(C)n1c(SCc2ccc(C(C)(C)C)cc2)nc2ccsc2c1=O` (centres undefined) gave HTT promoter inh -4.7% and PMP22 txn prim 1.3%.
`CCCCn1c(Oc2cccc(C(=O)OC)c2)nc2c1c(=O)n(C)c(=O)n2C` gave HTT promoter inh -0.4% and PMP22 txn prim 13.6%.
`CC(C)NC[C@@H](O)COc1cccc2ccccc12` gave HTT promoter inh 4.0%.
For CCCCOC(=O)c1ccc(OC(=O)c2sc3ncn(Cc4cccc(F)c4)c(=O)c3c2C)cc1 the results were HTT promoter inh 1.4% and PMP22 txn prim 2.6%.
`CCc1nc2nc(C)cc(Nc3ccc(OC)cc3)n2n1` gave HTT promoter inh -23.0% and PMP22 txn prim inconclusive.
COc1cc(Br)cc2cc(S(=O)(=O)c3ccccc3)c(=O)oc12 was read as HTT promoter inh -12.1% and PMP22 txn prim -0.1%.
For Cc1ccc(Cl)cc1NC(=O)c1cnc(N2CCCCC2)c2ccccc12 the results were HTT promoter inh -4.9% and PMP22 txn prim -20.4%.
Screening Cc1ccc(N2CC(C(=O)NCCS(=O)(=O)N3CCN(c4ccccc4)CC3)CC2=O)cc1C (centres undefined) returned HTT promoter inh -5.8% and PMP22 txn prim 8.6%.
`Cc1c(Cl)cccc1NC(=O)CN1C(=O)COc2ccc(S(=O)(=O)N3CCOCC3)cc21` gave HTT promoter inh -0.6% and PMP22 txn prim -18.8%.
For CC(=O)c1ccc(NC(=O)Cn2c(-n3nc(C)cc3C)nc(C)cc2=O)cc1 the results were HTT promoter inh -20.7% and PMP22 txn prim inconclusive.
For CCC(C)NC(=O)Cn1c(-c2cccs2)cc2cc(Cl)ccc21 (centres undefined) the results were HTT promoter inh -13.0% and PMP22 txn prim 14.5%.
Screening COc1cc(CNC(=O)C2CCCCN2S(=O)(=O)c2ccc(F)cc2)cc(OC)c1OC (centres undefined) returned HTT promoter inh inconclusive and PMP22 txn prim -84.9%.
Screening Cc1cc(C)cc(Nc2sc(C(=O)c3ccccc3)c(N)c2S(=O)(=O)c2ccccc2)c1 returned HTT promoter inh inconclusive and PMP22 txn prim -2.4%.
Screening Cc1cc2c(cc3c(=O)n(CC(=O)NCc4ccccc4Br)ncn32)s1 returned HTT promoter inh 1.8% and PMP22 txn prim -7.6%.
`CCn1cc2nc(SCC(=O)Nc3cccc(Cl)c3C)n(Cc3ccc(Cl)cc3)c(=O)c2n1` gave HTT promoter inh -14.1% and PMP22 txn prim inconclusive.
`CCOc1ccc(C2c3c(-c4ccc(C)cc4)n[nH]c3C(=O)N2c2ccc(Cl)cc2)cc1` (centres undefined) gave HTT promoter inh inconclusive and PMP22 txn prim inconclusive.
Screening CC(=O)Nc1nonc1-c1nnc(SCc2ccccc2Cl)n1C returned HTT promoter inh -15.7% and PMP22 txn prim -1.5%.
`COc1ccc(C)cc1NC(=O)Cn1c(=O)oc2cc(S(=O)(=O)N3CCCCCC3)ccc21` gave HTT promoter inh inconclusive and PMP22 txn prim -29.6%.
`CCCN(CCC)C(=O)C1CCCN(c2ncnc3c2nc2n3CCCCC2)C1` (centres undefined) gave HTT promoter inh inconclusive and PMP22 txn prim -34.5%.
Screening CCOc1ccc(N(CC(=O)Nc2cc(C)ccc2C)S(=O)(=O)c2c(C)[nH]c(=O)[nH]c2=O)cc1 returned HTT promoter inh -15.5%[11.5 µM] and PMP22 txn prim 5.6%.
`Cc1ccc(S(=O)(=O)N2CCC(C(=O)Nc3ccc(Oc4ccccc4)cc3)CC2)cc1` gave HTT promoter inh inconclusive and PMP22 txn prim 0.1%.
CC(C)=CCCC(C)=CCCC(C)=CCSc1ccccc1C(=O)O was read as HTT promoter inh inconclusive.
`COc1ccc(NC(=O)Cn2nnc(C(=O)NCc3ccc4c(c3)OCO4)c2N)cc1` gave HTT promoter inh -16.8% and PMP22 txn prim 6.0%.
For Cc1ccc(C(=O)N2CCc3cc(CNC(=O)CSc4ccccc4)ccc32)cc1 the results were HTT promoter inh inconclusive and PMP22 txn prim inconclusive.
For CCc1ccc(-c2nc(CSCC(=O)N3CCN(c4ccc(F)cc4)CC3)c(C)o2)cc1 the results were HTT promoter inh inconclusive and PMP22 txn prim inconclusive.
For COc1cc(OC)c(NS(=O)(=O)c2ccc3c(c2)NC(=O)CCS3)cc1Cl the results were HTT promoter inh 28.2µM* and PMP22 txn prim 14.1µM*.
Cc1ccc2c(c1)c1c(c(=O)n(-c3ccccc3C)c(=O)n1CC(=O)c1ccc(Cl)cc1)n2C was read as HTT promoter inh -12.6% and PMP22 txn prim -24.0%.
CCCCN(C)C(=O)c1ccc2c(c1)NC(=O)C(CC(C)C)N2 (centres undefined) was read as HTT promoter inh -21.0% and PMP22 txn prim -7.5%.
`Cc1ccc(NC(=O)C2CCN(S(=O)(=O)c3ccc4c(c3)CCCC(=O)N4)CC2)cc1N(C)C` gave HTT promoter inh -35.3% and PMP22 txn prim -3.2%.
COc1ccc(-n2ccnc2SCC(=O)Nc2ccc(F)cc2F)cc1 was read as HTT promoter inh inconclusive and PMP22 txn prim -38.0%.
For COc1ccc2c(c1)c1c(c(=O)n(-c3ccccc3C)c(=O)n1CC(=O)NCc1ccc(C)cc1)n2C the results were HTT promoter inh -27.9% and PMP22 txn prim inconclusive.
CCOc1ccccc1CNC(=O)c1ccc2c(c1)N(Cc1ccc(C)cc1)CCS2 was read as HTT promoter inh inconclusive and PMP22 txn prim inconclusive.
`COc1cc2cc(CNc3ccccc3)c(=O)n(CC(=O)Nc3cc(C)cc(C)c3)c2cc1OC` gave HTT promoter inh -18.1% and PMP22 txn prim inconclusive.
Screening Cc1cccn2c(=O)c3cc(C(=O)NC(C)C)n(C)c3nc12 returned HTT promoter inh 2.1% and PMP22 txn prim 2.8%.
For COc1cccc(N2CC(NC(=O)c3ccc4c(c3)OCO4)CC2=O)c1 (centres undefined) the results were HTT promoter inh -10.4% and PMP22 txn prim 12.3%.
For CC(=O)Nc1ccc2nc(NC(=O)CS(=O)(=O)c3ccc(C)cc3)sc2c1 the results were HTT promoter inh -13.6% and PMP22 txn prim inconclusive.
For O=S(=O)(Nc1ccc(Cl)cc1)c1cccc(S(=O)(=O)c2ccc(Cl)c(Cl)c2)c1 the results were HTT promoter inh inconclusive and PMP22 txn prim -25.7%.
`CC1CCn2c(nc3cc(C(=O)NCCc4ccccc4)ccc32)C1` (centres undefined) gave HTT promoter inh 2.2% and PMP22 txn prim 24.7%.
CCOC(=O)c1ccc(N2C(=O)c3[nH]nc(-c4ccc(C)cc4)c3C2c2ccc(O)c(OCC)c2)cc1 (centres undefined) was read as HTT promoter inh inconclusive and PMP22 txn prim 12.7µM*.
`CCOC(=O)c1ccc(NC(=O)C(=O)NCCc2ccc(OC)cc2)cc1` gave HTT promoter inh -0.8%[11.5 µM] and PMP22 txn prim 3.0%.
Screening COc1ccccc1C1NC(=O)c2n[nH]c(-c3cccs3)c21 (centres undefined) returned HTT promoter inh inconclusive and PMP22 txn prim inconclusive.
COc1cccc(CNC(=O)Cn2ccc3cc(S(=O)(=O)N4CCC(C)CC4)ccc32)c1 was read as HTT promoter inh -17.0% and PMP22 txn prim -13.4%.
Screening CCC(C(=O)NCCC(C)C)N(C(=O)Cn1nnc(-c2ccc(C)cc2)n1)c1cccc(O)c1 (centres undefined) returned HTT promoter inh inconclusive and PMP22 txn prim -1.0%.
For CC(C)(C)c1ccc(NC(=O)CSc2nnc3scc(-c4ccccc4)n23)cc1 the results were HTT promoter inh inconclusive and PMP22 txn prim inconclusive.
Screening COC1=C2C[C@@H](C)C[C@H](OC)[C@@H](O)[C@@H](C)C=C(C)[C@H](OC(N)=O)[C@@H](OC)C=CC=C(C)C(=O)NC(=CC1=O)C2=O returned HTT promoter inh inconclusive.
Screening Cc1ccc(-n2nc3c(N4CCCC(C(=O)NCCc5ccccc5)C4)nnc(C)c3c2C)cc1 (centres undefined) returned HTT promoter inh -4.6% and PMP22 txn prim inconclusive.
Screening CN(C)S(=O)(=O)c1ccc(C(=O)N(Cc2cccnc2)c2nc3c(F)cc(F)cc3s2)cc1 returned HTT promoter inh inconclusive and PMP22 txn prim inconclusive.
For CCc1ccc(NC(=O)C2CCN(S(=O)(=O)c3cccc(-c4noc(C)n4)c3)CC2)cc1 the results were HTT promoter inh -29.3% and PMP22 txn prim -4.6%.
Screening CCOC(=O)c1ccccc1NC(=O)N(C(C)C)C1CCN(C(C)=O)CC1 returned HTT promoter inh -14.5% and PMP22 txn prim -11.1%.
For O=C(NCc1ccccc1)c1cccc(N2CCCS2(=O)=O)c1 the results were HTT promoter inh 0.9% and PMP22 txn prim -9.1%.
`CCCN(CCC)C(=O)Cn1nnc2sc(-c3ccccc3)cc2c1=O` gave HTT promoter inh -4.0% and PMP22 txn prim -1.4%.
`COc1ccccc1Cc1nc2ccccc2[nH]c1=O` gave HTT promoter inh 24.9% and PMP22 txn prim -18.1%.
COc1cc(NC(=O)Cn2c(=O)n(Cc3ccccc3Cl)c(=O)c3cc(OC)c(OC)cc32)cc(OC)c1 was read as HTT promoter inh -5.2% and PMP22 txn prim inconclusive.
Screening CCOC(=O)c1cnc2c(C(F)(F)F)cccc2c1Nc1cccc(C(=O)OC)c1 returned HTT promoter inh inconclusive and PMP22 txn prim -0.3%.
CCOc1ccc(NC(=O)c2cnc(N3CCCCC3)c3ccccc23)cc1 was read as HTT promoter inh -19.8% and PMP22 txn prim -47.7%.
`O=C1NC(=O)C(=Cc2cccc(C(F)(F)F)c2)S1` gave HTT promoter inh -7.7%.
